ALR H2O2 inh = human ALR oxidase inhibition via reduced H2O2; P55789; purified ALR, DTT oxidation, H2O2 HRP-luminol luminescence; inhibition, % (no concentration beside the values); 290,000 compounds, 3.8% hits;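 active = mean and each replicate at 75% or more; inconclusive = only one of the two met; inactive = neither met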;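 note: stock transfer was 7.5 nL into about 7.5 µL; 0% = neutral wells and 100% = wells with inactivated enzyme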
Target sequence (P55789 whole entry, looked up): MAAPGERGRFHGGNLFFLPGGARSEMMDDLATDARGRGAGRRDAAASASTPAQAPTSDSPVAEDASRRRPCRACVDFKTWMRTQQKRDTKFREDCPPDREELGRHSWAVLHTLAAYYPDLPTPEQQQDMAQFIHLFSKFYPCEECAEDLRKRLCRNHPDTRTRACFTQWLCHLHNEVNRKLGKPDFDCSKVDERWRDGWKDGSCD
FGF22 binding = shifts melting point of recombinant human FGF22. Q9HCT0. recombinant FGF22 thermal shift, SYPRO orange fluorescence; percent of sucrose octasulfate shift, DMSO zero. calls only at 9.99 µM. 340,000 compounds, 1.5% hits;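 active = melting point raised past a set limit in the mean and every replicate; inconclusive = no clear call; three in four hits are not shown here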
Target sequence (Q9HCT0 whole entry, looked up): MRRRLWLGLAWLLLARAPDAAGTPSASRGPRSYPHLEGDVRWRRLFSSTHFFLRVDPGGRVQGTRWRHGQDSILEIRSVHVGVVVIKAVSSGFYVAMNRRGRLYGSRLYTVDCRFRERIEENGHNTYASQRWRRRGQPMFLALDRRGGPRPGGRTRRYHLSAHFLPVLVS
Vif TR-FRET = inhibitors of Vif binding to APOBEC3G peptide, primary screen, biochemical, TR-FRET, GST-Vif 1-94, biotin-A3G peptide, dose response retest (AID 1117319). inhibition, %, or IC50 in µM where a hit was titrated. 260,000 compounds, 0.57% hits. TR-FRET GST-Vif / biotin-A3G peptide binding; higher % means a stronger effect; test concentration not given here; strong numbers were not always called active;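 active = above the screen mean plus three standard deviations and confirmed in dose response; inconclusive = results disagree or hit not tested in dose response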;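 note: Vif residues 1-94 fused to GST binding biotinylated APOBEC3G peptide 110-148; 0% = full assay without inhibitor and 100% = GST in place of GST-Vif; retest series ran down from 100 µM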
rRNA inh HTS = inhibitors of bacterial rRNA selective over humanized ribosomes; GFP signal change (wild-type ribosome), % (test concentration not listed); AID 720706; 350,000 compounds, 1.6% hits; E. coli WT GFP vs humanized-ribosome RFP mutants, fluorescence, 24 h; hits give low values; DMSO median 0, no signal -100;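 active = significant combined selectivity score with lowered wild-type GFP, culture density cut under 30%, mutant RFP and density less affected; inactive = any of these conditions unmet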; note: one replicate is shown; some compounds called inactive have numbers as strong as hits
HNF4A DNA FP = change in binding of human HNF4 alpha to DNA | P41235 | HNF4a-FITC DNA binding, fluorescence polarization, 1 h | activity change, % at 10 µM | 360,000 compounds, 0.3% hits; in the data active = activity change above about 30%, passing the limit was not always enough;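 note: controls were the assay level and a saturating level of protein; the project sought stronger binding though the title names inhibitors; some compounds called inactive have numbers as strong as hits; positive values seem to mean higher polarization but the record does not say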
Target sequence (P41235 whole entry, looked up): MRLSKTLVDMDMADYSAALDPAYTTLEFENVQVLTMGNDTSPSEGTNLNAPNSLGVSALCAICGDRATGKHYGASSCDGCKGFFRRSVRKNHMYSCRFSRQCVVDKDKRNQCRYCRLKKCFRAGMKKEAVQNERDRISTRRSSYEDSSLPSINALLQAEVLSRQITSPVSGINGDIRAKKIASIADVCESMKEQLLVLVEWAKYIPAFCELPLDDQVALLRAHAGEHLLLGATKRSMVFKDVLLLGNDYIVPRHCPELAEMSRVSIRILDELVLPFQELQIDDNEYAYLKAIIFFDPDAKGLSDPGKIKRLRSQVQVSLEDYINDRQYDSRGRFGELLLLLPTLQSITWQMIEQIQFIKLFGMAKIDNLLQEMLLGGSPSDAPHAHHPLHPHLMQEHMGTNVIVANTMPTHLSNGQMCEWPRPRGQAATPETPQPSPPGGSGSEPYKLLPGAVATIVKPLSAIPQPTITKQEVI
E coli growth = inhibitors of Escherichia coli growth; OD600, 23 h; hits give low values; OD600 absorbance (no concentration beside the values); 330,000 compounds, 0.21% hits;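 active = OD600 absorbance below the run mean of sample wells minus 3.6 SD, in any replicate, cut at about 0.56 in these data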;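 note: stock transfer was 300 nL into about 60 µL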
AF4-AF9 inh = inhibitors of human MLL-AF4/AF9 interaction; P42568; AID 651704; inhibition, % at 10 µM; AlphaScreen, biotin-AF4 peptide binding to FLAG-AF9; 350,000 compounds, 0.47% hits;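 active = every replicate reaching a set inhibition limit, whatever the replicate mean, cut at about 25% in these data; inconclusive = mean inhibition reaches that limit but some replicates miss it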;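 note: 0% = plate neutral control median and 100% = total signal loss; the record names both 10 and 1 µM as test concentration; the first replicate is given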
rRNA inh HTS OD600 = further read-out of rRNA inh HTS, marked with its call; OD600 change, %; measured here: OD600 growth;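 optical density of the mix in the first replicate; 0 = DMSO median and -100 = no signal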
rRNA inh HTS RFP = also measured in rRNA inh HTS; calls as there; RFP signal change, %; measured here: RFP humanized mutant strains;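 first replicate; 0 = DMSO median and -100 = no signal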
* = called active by the depositor; i = inactive; ? = inconclusive; . = no result given; + = active, no number. This is a subset; the hit share may differ from the screen's.

SMILES	ALR H2O2 inh	FGF22 binding	Vif TR-FRET	rRNA inh HTS	rRNA inh HTS OD600	rRNA inh HTS RFP	HNF4A DNA FP	E coli growth	AF4-AF9 inh
O=c1cnnc(Nc2ccc(F)cc2)[nH]1	-3	i	-3%	25	14	2.3	0.3	0.71	-0.9
COc1ccccc1-c1ccc2n(c1=O)C[C@H]1[C@H](CO)[C@@H](C(=O)NCc3ccccc3F)N[C@@H]21	.	i	.	-1	1	0.8	.	.	1.1
Cc1ccc(S(=O)(=O)Nc2ccc3c(c2)CC(=O)N([C@@H](C)CO)C[C@@H](C)[C@@H](CN(C)C(=O)Nc2c(C)noc2C)O3)cc1	.	i	.	1	-2	-0.2	.	.	-0.7
CCOC1=C2CN(S(=O)(=O)c3ccc(C)cc3)C(c3ccc(CC)cc3)CC2N(S(=O)(=O)c2ccc(C)cc2)C(c2ccc(CC)cc2)C1 (centres undefined)	.	i	.	-6	10	0.6	0.9	.	.
Cc1c(CCC(=O)N[C@@H](C)C(=O)O)c(=O)oc2cc3oc4c(c3cc12)CCCC4	-14	i	3%	-7	-35	-2.9	-2.4	0.63	-4.0
O=S(=O)(/N=C(/Nc1cccc2ccccc12)c1ccccc1)c1cccs1	-16	.	6%	.	.	.	-1.6	.	.
COc1ccc(NS(=O)(=O)c2cc(NC(=O)C3CC3)ccc2N2CCOCC2)cc1	0	i	15%	-6	-12	-0.9	4.6	0.69	1.2
O=C(NCCN1CCC(n2c(=O)[nH]c3ccccc32)CC1)c1cccnc1	.	i	.	10	19	-1.9	-2.6	.	-0.3
C[C@@H]1CCCCO[C@H](CN(C)C(=O)C2CCCCC2)[C@@H](C)CN([C@H](C)CO)C(=O)c2cc(NC(=O)NC3CCCCC3)ccc2O1	.	i	.	2	7	-2.3	.	.	-6.4
Cc1ccc(Cl)cc1NS(=O)(=O)N1CCOCC1	9	i	.	6	6	0.0	0.3	0.7	-0.8
Cc1cccc(NC(=S)NCCC(C)C)c1	92*	.	2%	.	.	.	-1.1	0.66	.
COc1ccc(N2CCN(C(=O)NCc3cccc(OC)c3)CC2)cc1	-14	i	-4%	4	1	-1.1	-0.3	.	3.4
Cc1cccc(-c2ccc([C@@H]3[C@@H](CO)N4CCCCN(C(=O)c5cccnc5)C[C@@H]34)cc2)c1	.	i	.	-1	-38	15	.	.	-5.4
Cc1cnc(CN2CCCC(C(=O)c3ccc4c5c(cccc35)CC4)C2)[nH]1 (centres undefined)	-7	i	.	-25	-24	0.9	5.2	0.67	14
Cc1ccccc1CN1CCN(CC2CC3C=CC2C3)CC1 (centres undefined)	2	.	0%	.	.	.	0.7	0.65	.
Cc1ccc(C)c(N2CCN(C(=O)c3ccc(CSc4nc5ccncc5[nH]4)cc3)CC2)c1	-7	i	0%	-41	-68	-5.3	1.4	0.75	3.4
CCOc1ccc(CN(C)C(=O)NNC(=O)c2ccc(C)cc2)cc1OC	14	i	.	3	7	-1.6	2.7	0.7	0.5
Nc1c(-c2ccccc2)cnc2cc(-c3ccccc3)nn12	.	.	-10%	26	12	0.4	2.2	0.69	-0.4
CCOC(=O)c1c(CN(CC)CC)n(-c2ccccc2)c2ccc(O)cc12	-1	i	.	11	21	11	1.3	0.69	1.5
CC(C)CC(=O)NC(c1ccccc1Cl)c1c(O)ccc2ccccc12 (centres undefined)	-12	.	0%	.	.	.	4.1	0.67	.
COC(=O)C1=C(C)NC(C)=C(C(=O)O[C@@H]2CCCN(Cc3ccccc3)C2)[C@@H]1c1cccc([N+](=O)[O-])c1	11	i	.	.	.	.	-1.7	.	0.9
CCOc1cc(/C=N/Nc2ccccc2Cl)ccc1OCC(=O)O	99*	i	.	.	.	.	-3.9	.	0.0
COc1ccc(OCCC(=O)OCC(=O)NCc2ccccc2OC)cc1	3	i	-1%	0	-6	-0.8	-3.9	0.62	0.0
Cc1ccc(Oc2ccc(NC(=O)CCC(=O)OCC(=O)c3cccs3)cc2)cc1C	0	.	15%	.	.	.	2.3	0.67	.
COc1ccc(OCC(=O)Nc2ccc3oc(-c4ccncc4)nc3c2)cc1	3	i	-52%	8	12	-1.2	16	0.71	0.2

Next section:
SMILES	ALR H2O2 inh	FGF22 binding	Vif TR-FRET	rRNA inh HTS	rRNA inh HTS OD600	rRNA inh HTS RFP	HNF4A DNA FP	E coli growth	AF4-AF9 inh
CC12CC(O)C3c4ccc(O)cc4CCC3C1CCC2=O (centres undefined)	20	i	-1%	3	-5	-1.0	2.2	0.64	-0.9
CC(C)CC#Cc1ccc2c(c1)O[C@H](CN(C)Cc1ccccc1F)[C@H](C)CN([C@@H](C)CO)S2(=O)=O	.	i	.	6	3	-1.8	.	.	0.6
O=C(COC(=O)CSc1ccc(F)cc1)NCc1ccco1	1	i	14%	1	8	-1.0	-4.0	0.65	1.8
O=C(CSc1ncn[nH]1)NCc1ccc2c(c1)OCO2	2	.	0%	16	14	3.5	2.4	0.7	1.1
CCCN(CCC)c1nc(N)nc(-c2cc(Cl)ccc2OC)n1	-1	.	3%	.	.	.	-3.3	0.72	.
O=C(Nc1cccc(-c2nn[nH]n2)c1)c1cccs1	-2	i	.	4	2	2.3	-1.5	0.68	-1.5
CCOc1ccc2[nH]c(=O)c(C(c3nnnn3CCOC)N3CCOCC3)cc2c1 (centres undefined)	-7	.	28%	.	.	.	-3.5	0.78	.
COc1ccc(CNC(=O)C2CCCN2C(=O)NC2CCCCC2)cc1 (centres undefined)	.	.	-3%	.	.	.	0.2	0.68	.
O=C(Cc1sc(Nc2ccccc2)nc1-c1ccccc1)NCc1ccccn1	26	i	-2%	8	-1	9.5	3.4	0.65	-3.0
CCOc1ccc(S(=O)(=O)NCc2ccc(C)cc2)c2cccnc12	-7	.	-4%	.	.	.	0.7	0.7	.
CC12CCCC(=O)C1CCC(=Cc1ccco1)C2=O (centres undefined)	.	i	2%	13	10	5.9	-3.4	.	-9.9
COc1ccc(C(=O)NCc2ccc3c(c2)OCO3)c(OC)c1	1	i	.	-4	-6	0.4	-0.7	0.66	-4.2
CNC(=O)c1cc(S(=O)(=O)N2CC(C)OC(C)C2)ccc1N1CCOCC1 (centres undefined)	.	i	.	4	10	-3.6	-0.9	0.7	-7.1
COc1ccc(NS(=O)(=O)c2cccc(C(=O)NCC3(N4CCOCC4)CCCCC3)c2)cc1	0	i	.	-18	-24	-0.9	-0.1	0.7	4.2
O=C(OCC(=O)N1CCCCCC1)c1ccc(Cl)nc1	8	i	.	19	16	0.3	-3.4	0.66	-1.3
CC(=O)N1[C@H](CO)[C@H](c2ccccc2)[C@@H]1CN(C(=O)c1ccc(F)cc1)C(C)C	.	i	.	4	13	-2.5	.	.	-2.3
Cc1cccc(S(=O)(=O)N2CCCCN3[C@@H](CO)[C@H](c4ccc(C#CC5CC5)cc4)[C@@H]3C2)c1	.	i	.	-52	-65	-5.2	.	.	6.4
N#Cc1c(NC(=O)c2cnn3cccnc23)sc2c1CCCC2	.	i	-9%	-2	11	10	-3.1	0.71	-1.5
CC(C)N(Cc1ccccc1)S(=O)(=O)N(C)C	-2	.	32%	.	.	.	-0.6	0.73	.
CCOC(=O)C1(C)NC(c2ccco2)C2C(=O)N(CC)C(=O)C21 (centres undefined)	3	i	99µM*	16	18	0.7	-3.3	0.71	0.1
O=C(C[C@H]1CC[C@H]2[C@@H](COC[C@H](O)CN2C(=O)Nc2ccc(Cl)c(Cl)c2)O1)NC1CCC1	.	i	.	-55	-77	-17	.	.	1.5
Cc1cc(NC(=O)CCC(=O)N(c2ccc(F)cc2)C(C(=O)NC2CCCC2)c2ccccc2)no1 (centres undefined)	.	i	2%	2	18	0.4	-2.0	0.67	1.1
O=C(NCc1ccc(F)cc1)C1CCCN1C(=O)Nc1ccc(Cl)cc1 (centres undefined)	-5	i	-3%	1	8	-2.2	0.2	0.68	4.4
CNC(=O)c1cn(-c2ccccc2)c(=O)c2ccccc12	-2	.	0%	.	.	.	-1.1	0.69	.
CSc1ncnc2c1ncn2CCCNCc1ccccn1	.	i	-1%	.	.	.	-1.4	.	-3.2

Nothing new here: 2 of the compounds above.
SMILES	ALR H2O2 inh	FGF22 binding	Vif TR-FRET	rRNA inh HTS	rRNA inh HTS OD600	rRNA inh HTS RFP	HNF4A DNA FP	E coli growth	AF4-AF9 inh
CCOC(=O)C1(C)NC(c2ccco2)C2C(=O)N(CC)C(=O)C21 (centres undefined)	3	i	99µM*	16	18	0.7	-3.3	0.71	0.1
O=C(C[C@H]1CC[C@H]2[C@@H](COC[C@H](O)CN2C(=O)Nc2ccc(Cl)c(Cl)c2)O1)NC1CCC1	.	i	.	-55	-77	-17	.	.	1.5

Additional records.
SMILES	ALR H2O2 inh	FGF22 binding	Vif TR-FRET	rRNA inh HTS	rRNA inh HTS OD600	rRNA inh HTS RFP	HNF4A DNA FP	E coli growth	AF4-AF9 inh
CN1CCN(CCOc2cccc(Cl)c2)CC1	-2	.	-9%	.	.	.	-0.5	0.67	.
C[C@@H]1CN([C@@H](C)CO)S(=O)(=O)c2ccc(-c3ccncc3)cc2O[C@@H]1CN(C)C(=O)Nc1ccc(F)cc1	.	+	.	-3	-7	-1.7	.	.	-2.0
C[C@@H]1CN([C@H](C)CO)C(=O)Cc2cc(NS(=O)(=O)c3cn(C)cn3)ccc2O[C@H]1CN(C)C	.	i	.	1	-3	-0.6	.	.	-0.1
O=[N+]([O-])c1cccc(C=NNc2ccccc2)c1	.	i	-6%	-10	3	-1.8	-3.5	0.65	18
C[C@@H]1CN([C@@H](C)CO)C(=O)Cc2cc(NC(=O)c3ccncc3)ccc2O[C@H]1CN(C)Cc1ccc(-c2ccccc2)cc1	.	i	.	-3	-31	26	.	.	15
O=[N+]([O-])c1cccc(/C([O-])=C(/C(=S)Nc2cccc3ccccc23)[n+]2ccccc2)c1	.	.	?	-9	-5	4.1	5.9	0.69	11
O=C(Nc1cccnc1)c1ccc(S(=O)(=O)c2ccccc2)cc1	-2	i	-1%	-6	-3	0.3	0.5	0.7	-1.0
Oc1ccccc1/C=N/NC(=S)NC1CC2CC1C1C=CCC21 (centres undefined)	-3	i	-8%	-48	-53	-13	-2.8	.	?
CCC(=O)N1CC2(C1)[C@@H](c1ccccc1)[C@H](CO)N2CCC(F)(F)F	.	i	.	4	13	1.0	.	.	-1.3
CCOC(=O)CCCCCNC(=O)c1ccc(F)cc1F	-3	i	.	12	0	-0.9	-3.3	0.68	.
COc1ccc(Cl)cc1NC(=O)c1cccnc1	-5	.	5%	.	.	.	5.9	0.68	.
O=C(C1CC1)N1C[C@@H]2[C@H](c3ccccc31)[C@@H](CO)N2C(=O)Nc1cccc(F)c1	.	i	.	0	0	-1.8	.	.	-8.3
Cc1ccc(C2CC(c3ccco3)=NN2S(C)(=O)=O)cc1 (centres undefined)	-14	i	10%	4	4	1.9	4.4	0.7	2.5
O=C(CN(C1CCCCC1)S(=O)(=O)c1ccc(F)cc1)NC1CC1	-1	.	1%	3	-1	0.5	1.1	0.72	-35
O=C(O)C1C(c2ccccc2)C(C(=O)OCCCO)C1c1ccccc1 (centres undefined)	-2	.	-2%	.	.	.	2.0	0.73	.
Nc1cc(C(=O)OCC(=O)NNC(=O)c2ccccc2F)ccc1Cl	1	i	-2%	2	8	3.1	-4.6	0.65	-1.2
CCn1cc(Br)c(C(=O)N(C)Cc2ccccc2)n1	-11	.	0%	2	6	5.6	1.2	0.73	.
CN(C)CCCN(C(=O)c1ccc(S(=O)(=O)N2CCc3ccccc32)cc1)c1nc2ccc(F)cc2s1	-18	.	2%	-54	-80	-20	6.5	0.67	-0.3

Screens as filed in PubChem BioAssay.
